LASV entry inh = inhibitors of Lassa virus binding or cell entry | Lassa virus pseudotype entry inhibition, cell reporter; control for the full effect not named in the record | 300,000 tested, 1.2% active | Potency, µM (series often up to 37.9 µM), inactives show at the top dose activity change, negative = inhibition, most hits filed as inhibitors; active means well fitted inhibition curve with a large enough effect; inconclusive means small, poorly fitted or top-dose-only effect, or effect the other way; inactive means flat fitted curve, though single readings scatter; tested in HEK293 cells; also: % is scaled to controls: 0 for no effect and ±100 for the full control effect; nearly all actives have a fitted effect of over 50% in size; luciferase read-out
SARS PLpro yeast = inhibitors of SARS-CoV papain-like protease in yeast | S. cerevisiae expressing SARS-CoV PLpro, growth rescue; control for the full effect not named in the record | Potency, µM (doses to about 32.9 µM), for inactives: top-dose activity, positive = growth rescue | 330,000 tested, 0.19% active | AID 485353; active means well fitted rising curve with a large enough effect; inconclusive means small, poorly fitted or top-dose-only effect; inactive means no such curve, though single readings can be large or run the other way; also: 0% is about no effect; nearly all actives have a fitted effect of over 55% in size; growth read by luminescence after 48 h
MARV entry inh = inhibitors of Marburg virus binding or cell entry; Potency, µM (highest dose often 37.8 µM), for inactives: top-dose activity change, negative = inhibition, hits mostly inhibitors; Marburg virus pseudotyped entry inhibition, cell reporter; control for the full effect not named in the record; about a third of the inactives were read at about 46 µM; AID 540276; 300,000 tested, 1.8% active; active = well fitted inhibition curve with a large enough effect; inconclusive = small, poorly fitted or top-dose-only effect, or effect the other way; inactive = flat fitted curve, though single readings scatter; tested in HEK293 cells; about a fifth of its hits are not listed in these tables; also: % is scaled to controls: 0 for no effect and ±100 for the full control effect; luciferase read-out
Cruzain noTriton = inhibitors of Trypanosoma cruzi cruzain without detergent | purified cruzain, Z-FR-AMC fluorescence, no detergent | 200,000 tested, 2.3% active | Potency, µM, inactives show max response, negative = inhibition, hits mostly inhibitors;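 also: plate controls were enzyme without inhibitor for no effect and buffer without enzyme for full effect; nearly all actives have a fitted effect of over 40% in size; top concentration of the series not given in the record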
Target sequence (P25779 123-467 limits assumed): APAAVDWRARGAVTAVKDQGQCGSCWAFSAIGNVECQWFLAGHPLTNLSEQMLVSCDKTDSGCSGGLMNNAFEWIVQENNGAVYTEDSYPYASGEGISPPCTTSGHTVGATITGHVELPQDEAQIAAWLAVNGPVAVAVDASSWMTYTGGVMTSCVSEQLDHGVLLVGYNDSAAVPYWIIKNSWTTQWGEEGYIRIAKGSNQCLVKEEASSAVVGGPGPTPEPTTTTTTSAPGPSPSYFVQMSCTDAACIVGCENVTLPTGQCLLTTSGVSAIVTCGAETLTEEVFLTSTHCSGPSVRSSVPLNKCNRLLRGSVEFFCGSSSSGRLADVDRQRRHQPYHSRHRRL
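Detergent-free condition (0.00005% Triton X-100) in acetate buffer pH 5.5 with DTT. 1.5 nM enzyme and compound were pre-mixed 15 min, then 2 uM Z-FR-AMC substrate added; reaction progress from fluorescence change between first and third reads (60 s).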
RE007 growth inh = less growth of the S. pombe RE007 Vpr strain; S. pombe RE007 Vpr strain, BacTiter-Glo ATP luminescence, 24 h; control for the full effect not named in the record; Potency, µM (series often up to 92.2 µM), for the others: at the highest dose activity change, negative = less growth; 360,000 tested, 0.21% active; active = well fitted falling curve with a large enough effect; inconclusive = small, poorly fitted or top-dose-only effect; inactive = no such curve, though single readings can be large or run the other way;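 also: % is scaled to controls: 0 for no effect and ±100 for the full control effect; nearly all actives have a fitted effect of over 50% in size; the assay follows cell death caused by Vpr and the record does not say whether a fall means rescue or toxicity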
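Fission yeast RE007 carrying one integrated HIV-1 vpr copy, seeded at OD 0.01 in PMG+AL medium with 23 nL pinned compound. Grown 24 h at 30 degrees; viability read by BacTiter-Glo luminescence after 5 min.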
NS1 function inh = blocks influenza NS1 protein function; S. cerevisiae slowed by influenza A NS1, growth recovery by OD600; Potency, µM (top dose mostly 46.1 µM), without a hit: at the highest dose activity, positive = more growth; 270,000 tested, 0.4% active; AID 2326; active means well fitted rising curve with a large enough effect; inconclusive means small, poorly fitted or top-dose-only effect; inactive means no such curve, though single readings can be large or run the other way; also: nearly all actives have a fitted effect of over 50% in size
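Recovery from NS1-induced slow growth read by OD600 in budding yeast switched to galactose assay medium (pH 6.0, -URA) at 1:100 dilution. Compound 23 nl per well; the matching strain lacking NS1 serves as control.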
2A StopGo = lowers the luciferase signal of an FMDV 2A StopGo reporter | human cells with a luciferase reporter of 2A StopGo recoding; control for the full effect not named in the record | Potency, µM (series often up to 57.9 µM), for the others: top-dose signal change, negative = less light | 410,000 tested, 1.2% active; active = well fitted falling curve with a large enough effect; inconclusive = small, poorly fitted or top-dose-only effect; inactive = no such curve, though single readings can be large or run the other way; tested in HEK293T cells; also: % is scaled to controls: 0 for no effect and ±100 for the full control effect; nearly all actives have a fitted effect of over 45% in size; luciferase light after 4 h
Cruzain inh Det = inhibitors of Trypanosoma cruzi cruzain with detergent. P25779. purified cruzain, Z-FR-AMC fluorescence, 0.01% Triton. Potency, µM, for the others: max response, negative = inhibition, actives largely listed as inhibitors. 200,000 tested, 0.43% active;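 also: plate controls were neutral wells for no effect and buffer without enzyme for full effect; nearly all actives have a fitted effect of over 40% in size; top concentration of the series not given in the record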
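Detergent-containing arm of a paired screen for aggregation-based inhibition: 0.01% Triton X-100 present. Cruzain at 1.5 nM cleaved 2 uM Z-FR-AMC at pH 5.5 with 5 mM DTT; AMC fluorescence gain over 60 s measured activity.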
The depositor's hits bear a star; ? = inconclusive; . = no result given; [ ] = dose if it differs, or a comment. Unless noted, calls follow the shape of the dose curve; as a rule, active = well fitted curve in the direction sought with a large enough effect; inconclusive = small, poorly fitted or top-dose-only effect, or another doubt; inactive = no such curve, though single readings can be large; an effect the other way counts as inactive or inconclusive. Potency is read from the fitted curve at half-maximal effect. Compounds as they come; overall some 4.8% were active at least once.

no.	molecule	LASV entry inh	SARS PLpro yeast	MARV entry inh	Cruzain noTriton	RE007 growth inh	NS1 function inh	2A StopGo	Cruzain inh Det
1	C=CCn1c(NS(=O)(=O)c2ccccc2)c(S(=O)(=O)c2ccc(C)cc2)c2nc3ccccc3nc21	-12%	?	-16%	?	-15%	?	?	-26%
2	Cc1cc(C)n(-c2nnc3n2N=C(c2c[nH]c4ccccc24)CS3)n1	?	-3%	?	-5%	2%	-10%	?	-8.5%
3	CCCCn1cc(SCC(=O)O)c2ccccc21	-4%	-1%	?	-3%	8%	-117%	10%	2.4%
4	Cc1ccccc1-c1nnc(NC(=O)c2cc3ccccc3oc2=O)s1	0%	6%	-7%	0%	.	5%	.	-4.6%
5	O=C(COC(=O)c1cccs1)NC1CCCC1	-3%[46.1 µM]	4%	8%[46.1 µM]	.	8%	-1%	0%	.
6	CCn1c(C)nc2cc(C(=O)NNC(=O)Nc3cccc(Cl)c3)ccc21	15%	1%	?	.	-26%	6%	1%	.
7	O=C(NCC(c1ccco1)N1CCN(c2ccc(F)cc2)CC1)c1ccc2c(c1)OCO2 (stereo not drawn)	?	-4%	?	.	-19%	.	-29%	.
8	CC(=O)c1c(C)[nH]c(C(=O)OCC(=O)N2CC(=O)Nc3ccccc32)c1C	1%	9%	19%	1%	3%	18%	-17%	-4.8%
9	Cc1ccc2nc(SCC(=O)c3cc(C)n(C)c3C)[nH]c2c1	20%	-24%	1%	14%	-15%	1%	9%	3.0%
10	COc1nc(Nc2ccc([N+](=O)[O-])cc2)nc(NC(C)C)n1	0%	13%	-3%	-19%	2%	6%	-2%	-14%
11	CCOC(=O)/C(C#N)=C/c1ccc(-c2ccc(C)cc2)o1	24%[46.1 µM]	.	.	-10%	.	.	35%[activator]	0.6%
12	CCCN(C(=O)COC(=O)CCOc1ccc(C)cc1)c1c(N)n(Cc2ccccc2)c(=O)[nH]c1=O	-7%	-4%	?	.	-4%	.	-20%	.
13	N/C(Cc1ccc(Cl)cc1Cl)=N\OC(=O)c1ccccc1F	14%[46.1 µM]	-5%	-12%[46.1 µM]	.	-28%	.	18%	.
14	CC(c1ccccc1)n1c(CCCO)nc2ccccc21 (stereo not drawn)	.	1%	.	.	-9%	9%	-27%	.
15	CNS(=O)(=O)c1cn(CC(=O)NCc2ccc(F)cc2)cc1S(=O)(=O)NC	.	0%	.	.	-1%	-7%	0%	.
16	CCOC(=O)NC(C(Cl)(Cl)Cl)S(=O)(=O)c1ccccc1 (stereo not drawn)	?	-1%	?	.	0%	1%	?	.
17	Cc1cc(C)cc(-n2cccc2/C=C2/C(=N)N3C(=NC2=O)SN=C3S(C)(=O)=O)c1	16%	2%	-5%[46.1 µM]	.	-1%	.	0%	.
18	O=C(c1ccc(S(=O)(=O)N2CCOCC2)cc1)N(c1cccc(Cl)c1)C1C=CS(=O)(=O)C1 (stereo not drawn)	19%	0%	3%	.	2%	.	-6%	.
19	CSc1cccc(NC(=O)/C=C/c2ccc(Cl)cc2)c1	-1%	-17%	2%	10%	-12%	-16%	-20%	-5.4%
20	COc1cc(/C=N/NC(=O)c2ccoc2C)cc(OC)c1OC	5%	.	5%	.	-9%	.	68%[activator]	.
21	CC1OC(OC2C(CO)OC(OC3C(CO)OC(O)C(O)C3O)C(O)C2O)C(O)C(O)C1N[C@@H]1C=C(CO)[C@@H](O)C(O)[C@H]1O (stereo partly drawn)	.	4%	.	.	-25%[18.4 µM]	4%	-15%	.
22	CCOC(=O)C1=C(C)Nc2nc(=S)[nH]n2C1c1ccc(Cl)cc1 (stereo not drawn)	.	0%	2%	1%	.	-86%	32%[activator]	-3.0%
23	CCCSCCCNC(=O)c1ccc(C)c(NC(=O)c2nsc3ccccc23)c1	11%[46.1 µM]	.	.	5%	.	.	-8%	2.2%
24	Cc1ccc(C)c(NC(=O)Cc2nc(CCl)cs2)c1	-9%	-7%	-20%	25%	-21%	2%	-15%	-4.7%
25	CCOC(=O)c1sc2ccccc2c1S(=O)(=O)N1CCN(c2cccc(OC)c2)CC1	?	.	.	-11%	.	.	-20%	-2.5%
26	CCOc1ccc(Cc2nc(C)c(CC(=O)N3CCCCC3)c(=O)[nH]2)cc1	13%	-15%	16%	-14%	-7%	-2%	0%	1.6%
27	O=C(NC1(C(F)(F)F)C(=O)Nc2c1c(=O)[nH]c(=O)n2-c1ccccc1)c1ccccc1Cl (stereo not drawn)	8%[46.1 µM]	.	.	-6%	.	.	-4%	0.3%
28	CN1C(=O)C(O)(C2COC(C)(C)CC2=O)c2ccccc21 (stereo not drawn)	-1%	-4%	-1%	11%	-8%	2%	-13%	0.2%
29	Cc1cccc(OCC(=O)N2CCN(S(C)(=O)=O)CC2)c1	12%	0%	17%[46.1 µM]	.	0%	5%	8%	.
30	CCCCn1c(SCC(=O)Nc2ccc3c(c2)OCO3)nc2c1c(=O)n(C)c(=O)n2C	-3%	1%	?	?	-3%	-9%	?	-3.4%

Some of these compounds in order of number of heavy atoms, highest first.
no.	molecule	LASV entry inh	SARS PLpro yeast	MARV entry inh	Cruzain noTriton	RE007 growth inh	NS1 function inh	2A StopGo	Cruzain inh Det
23	CCCSCCCNC(=O)c1ccc(C)c(NC(=O)c2nsc3ccccc23)c1	11%[46.1 µM]	.	.	5%	.	.	-8%	2.2%
15	CNS(=O)(=O)c1cn(CC(=O)NCc2ccc(F)cc2)cc1S(=O)(=O)NC	.	0%	.	.	-1%	-7%	0%	.
24	Cc1ccc(C)c(NC(=O)Cc2nc(CCl)cs2)c1	-9%	-7%	-20%	25%	-21%	2%	-15%	-4.7%

A different layout for some results above.
Values run as follows: LASV entry inh	SARS PLpro yeast	MARV entry inh	Cruzain noTriton	RE007 growth inh	NS1 function inh	2A StopGo	Cruzain inh Det
10. COc1nc(Nc2ccc([N+](=O)[O-])cc2)nc(NC(C)C)n1
 : 0%	13%	-3%	-19%	2%	6%	-2%	-14%
11. CCOC(=O)/C(C#N)=C/c1ccc(-c2ccc(C)cc2)o1
 : 24%[46.1 µM]	.	.	-10%	.	.	35%[activator]	0.6%

Quoted from the listing.
Value of CCn1c(C)nc2cc(C(=O)NNC(=O)Nc3cccc(Cl)c3)ccc21 in 2A StopGo: 1%
Value of CSc1cccc(NC(=O)/C=C/c2ccc(Cl)cc2)c1 in 2A StopGo: -20%

Further records follow.
no.	molecule	LASV entry inh	SARS PLpro yeast	MARV entry inh	Cruzain noTriton	RE007 growth inh	NS1 function inh	2A StopGo	Cruzain inh Det
31	Cc1ccc(S(=O)(=O)NNc2nnc(C)c(=O)[nH]2)cc1	23%[46.1 µM]	2%	5%[46.1 µM]	.	24%	.	-11%	.
32	CCOc1cc(/C=N/Nc2cc(C)nc3ccc(C)cc23)ccc1O	.	5%	.	.	-2%	19%	36%[activator]	.
33	Cc1cc(S(=O)(=O)Nc2ccc3[nH]c(=O)sc3c2)ccc1F	2%[46.1 µM]	.	.	-4%	.	.	15%	-6.3%
34	O=C(/C=C\Nc1ccc(S(=O)(=O)Nc2ncccn2)cc1)c1ccccc1	27%	0%	?	.	?	0%	-3%	.
35	NC(=O)COc1ccc2cc(-c3ccccc3)c(=O)oc2c1	.	7%	.	.	2%	9%	60%[activator]	.
36	CCC1CCCCN1C(=O)COc1c(Br)cc(Br)c2cccnc12 (stereo not drawn)	.	0%	?	.	-14%	-5%	?	.
37	CC(C)OCCCn1c(SCC(=O)N2CCc3ccccc32)nc2ccccc2c1=O	-5%	0%	8%	19%	3%	-8%	-20%	1.2%
38	COCCN1C(=O)/C(=C/c2ccc(N3CCCC3)cc2C)SC1=S	7%[46.1 µM]	1%	8%[46.1 µM]	.	-11%	2%	-7%	.
39	Cc1ccc(Nc2ncnc3onc(C)c23)cc1Cl	?	.	.	-3%	.	.	-17%	-1.6%
40	CCSCc1nnc(SCC(=O)Nc2cc(F)ccc2C)n1C	4%[46.1 µM]	0%	9%[46.1 µM]	.	2%	3%	-18%	.
41	CCOc1ccccc1NC(=O)c1c(NC(=O)c2ccccc2C)sc2c1CCC(C)C2 (stereo not drawn)	1%[46.1 µM]	.	.	1%	.	.	18%	-1.5%
42	CCc1ccccc1NC(=O)c1ccc(OCc2c(C)noc2C)cc1	?	6%	-14%	.	14%	.	-27%	.
43	COc1ccc(NC(=O)c2ccccc2NC(=O)c2ccco2)cc1	2%	1%	-17%[46.1 µM]	.	12%	0%	0%	.
44	COc1ccccc1-n1c(C)cc(/C=C2/C(=N)N3C(=NC2=O)SN=C3S(C)(=O)=O)c1C	?	2%	-8%[46.1 µM]	.	2%	.	4%	.
45	Cc1[nH]nc2c1C1(CCN(C(=O)c3ccccc3)CC1)C(C#N)=C(N)O2	7%	1%	3%	-9%	-3%	-10%	9%	5.2%
46	Cc1ccc(-n2c(C)cc(C(=O)CN3CCOCC3)c2C)cc1C	?	-4%	-38%	.	2%	.	16%	.
47	Cc1c(Cl)cccc1NC(=O)NCCOCCn1c(=O)oc2ccccc21	7%[46.1 µM]	.	-5%[46.1 µM]	-2%	.	.	-23%	1.1%
48	COC(=O)c1sc(-c2ccccc2)cc1NC(=O)c1cccc(Cl)c1	27%[46.1 µM]	.	3%[46.1 µM]	-1%	.	.	-27%	-1.8%
49	Cc1ccc(C(c2nnnn2C2CCCC2)N2CCc3ccccc32)cc1 (stereo not drawn)	?	-31%	3%	32µM*	.	6%	6%	-6.0%
50	CCOC(=O)/C(C(N)=NCCCO)=C(/O)c1ccccc1	-6%	-1%	10%	1%	9%	1%	16%	-1.9%
51	COc1ccc(N2C(=O)C(CC(=O)Nc3ccccc3)N(Cc3ccc(OC)c(OC)c3)C2=O)cc1 (stereo not drawn)	-1%	1%	3%[46.1 µM]	.	6%	.	5%	.

Bioassay records from PubChem.
